# T cruzi inh: blocks replication of Trypanosoma cruzi | T. cruzi beta-gal in NIH3T3, luminescence, 90 h | inhibition, % (no concentration beside the values) | 300,000 compounds, 1.4% hits | AID 1885;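 active = mean inhibition across valid replicates above about 55%, limit read from the data; inconclusive = mean below that limit but half or more replicates reach it; inactive = mean below it, under half of replicates reach it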;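 note: signal also drops with host cell toxicity which is not excluded here; 0% = plate median of DMSO wells and 100% = zero luminescence signal; higher percent means less beta-gal luminescence so fewer parasites; stock transfer was 50 nL into about 50 µL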
# AF4-AF9 inh: blocks AF4 peptide binding to human AF9; AlphaScreen, biotin-AF4 peptide binding to FLAG-AF9; inhibition, % at 10 µM; 350,000 compounds, 0.47% hits; AID 651704;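 active = every replicate reaching a set inhibition limit, whatever the replicate mean, cut at about 25% in these data; inconclusive = mean inhibition reaches that limit but some replicates miss it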;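 note: 0% = plate neutral control median and 100% = total signal loss; the record names both 10 and 1 µM as test concentration; the first replicate is given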
# Target sequence (P42568 whole entry, looked up): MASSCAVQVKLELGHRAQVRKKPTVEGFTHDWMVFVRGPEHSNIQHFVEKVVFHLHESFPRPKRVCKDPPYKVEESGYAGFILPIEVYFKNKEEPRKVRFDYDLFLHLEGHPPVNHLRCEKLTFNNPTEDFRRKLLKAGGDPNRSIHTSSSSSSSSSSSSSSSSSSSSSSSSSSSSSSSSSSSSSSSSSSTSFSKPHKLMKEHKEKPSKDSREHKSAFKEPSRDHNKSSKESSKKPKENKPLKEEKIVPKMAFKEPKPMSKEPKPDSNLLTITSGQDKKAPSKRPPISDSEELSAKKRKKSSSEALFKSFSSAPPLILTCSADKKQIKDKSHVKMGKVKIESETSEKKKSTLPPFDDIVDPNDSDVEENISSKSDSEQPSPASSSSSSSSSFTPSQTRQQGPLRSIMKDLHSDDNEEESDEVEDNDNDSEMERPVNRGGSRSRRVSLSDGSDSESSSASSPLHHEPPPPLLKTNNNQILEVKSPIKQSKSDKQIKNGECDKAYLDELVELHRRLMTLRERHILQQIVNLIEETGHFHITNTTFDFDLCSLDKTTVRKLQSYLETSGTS
# Vif A3G: HIV-1 Vif–A3G interaction blockers – biochemical, TR-FRET, GST-Vif 1-94, biotin-A3G peptide, dose response retest, primary screen (AID 1117319) | TR-FRET GST-Vif / biotin-A3G peptide binding; higher % means a stronger effect; test concentration not given here; strong numbers were not always called active | inhibition, %; hits with a dose series show IC50 in µM | 260,000 compounds, 0.57% hits;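 active = above the screen mean plus three standard deviations and confirmed in dose response; inconclusive = results disagree or hit not tested in dose response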;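 note: Vif residues 1-94 fused to GST binding biotinylated APOBEC3G peptide 110-148; 0% = full assay without inhibitor and 100% = GST in place of GST-Vif; retest series ran down from 100 µM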
# Calb FLC: C. albicans growth modulation with fluconazole | growth inhibition, % (concentration not given with the values) | 300,000 compounds, 0.57% hits | C. albicans CaCi-2 (fluconazole-resistant clinical isolate) + fluconazole, Alamar Blue growth, 48 h;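 active = most replicates above 75%; inconclusive = exactly half above 75%; inactive = most below 75%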;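 note: all wells also contain fluconazole at 8 µg/ml as a sub-toxic cotreatment; 0% = median of DMSO wells and 100% = median of geldanamycin control wells; wells of about 8 µL received 7.5 nL stock; the first replicate is given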
# LANA-H2B inh: blocks KSHV LANA binding to histone H2A/H2B; Q9QR71; cell-free LANA-H2A/H2B peptide, fluorescence polarization; inhibition, % (concentration not given with the values); 320,000 compounds, 0.6% hits; AID 2629; in the data active = inhibition mostly above about 10%, no sharp cut-off; inactive = mostly below about 6.7%;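 note: stock transfer was 7.5 nL into about 10 µL; 0% = median of vehicle wells and 100% = median of positive control wells; one replicate is shown; the record names a cut of 25% in any replicate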
# Beta apoptosis: beta cell apoptosis inhibition; INS-1E cytokine-induced death, ATP luminescence, 48 h; percent of positive-control rescue, neutral wells zero; protection from apoptosis, % (no concentration beside the values); 300,000 compounds, 0.8% hits;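 active = all replicates at 75% or more, or half of them and the mean; inconclusive = half reach 75% but not the mean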;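 note: 0% = cytokine-treated negative control wells and 100% = positive control rescue; higher means more ATP so stronger rescue from cytokine killing; wells of about 40 µL received 100 nL stock; the first replicate is given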
# RanGTP-Imp inh: inhibitors of RanGTP-importin-beta interaction, primary screen, biochemical, FRET, CFP-Ran, YFP-importin-beta, homogeneous. 300,000 compounds, 1.1% hits. inhibition, % (concentration not given with the values). cell-free CFP-Ran/YFP-importin-beta FRET ratio;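 active = most replicates above 15%; inconclusive = exactly half above 15%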;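 note: 0% = DMSO wells and 100% = Ran loaded with GDP instead of GTP; wells of about 40 µL received 100 nL stock; the first replicate is given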
# A1 inh: inhibitors of the anti-apoptotic protein A1, read as caspase activation. caspase activation, % (no concentration beside the values). MEF A1-2A-BIM cells, Caspase-Glo 3/7 luminescence, 3 h; percent of clofoctol response, vehicle zero. 330,000 compounds, 0.066% hits. AID 2462;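 active = over half of replicate activation scores above 10%, or exactly half above 10 with the replicate mean above 10; inconclusive = replicate mean below 10 yet half the replicates above 10; inactive = over half of replicates below 10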;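 note: wells of about 30 µL received 50 nL stock; many hits fall short of the cut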
# * hit, by the source's call; ? = inconclusive; / = not tested or not shown; & = joins results of further samples.
SMILES	Calb FLC	A1 inh	AF4-AF9 inh	RanGTP-Imp inh	Vif A3G	Beta apoptosis	LANA-H2B inh	T cruzi inh
Cc1cc(C)c(C#N)c(SCc2[nH]nc3c2C(c2ccccc2)C(C#N)=C(N)O3)n1 (stereo not drawn)	2.2	0.6	8.9	?	?	-4.2	-2.0	0.7
CCCN1CCN(C(=O)c2oc3ccccc3c2NC(=O)C2CC2)CC1	-4.5	1.2	-3.2	4.8	/	-0.8	-0.7	-13.1
COc1cccc(COC(=O)C2CCN(C(=O)c3ccccc3C)CC2)c1OC	33.5	-0.7	0.3	1.7	/	1.8	-13.6	-20.3
COc1ccc(N2CCN(Cc3csc(C)c3-c3ccc(C)cc3)CC2)cc1	4.4	0.1	12.2	0.4	2.5%	7.1	-7.0	39.4
CCN(CC)C(=O)COc1coc(CN2CCN(c3cccc(Cl)c3)CC2)cc1=O	1.4	-0.6	-2.2	4.9	/	/	-3.5	4.7
COC(=O)C1=C(C)N(c2ccc(F)cc2)C(=O)C1	-3.7	1.0	/	-5.1	-1.0%	-2.9	-2.6	-5.0
O=S(=O)(Nc1cccc2ccccc12)N1CCCC1	23.7	-0.7	2.9	5.3	3.7%	-2.9	0.0	-18.0
Cc1cc(C(=O)NCc2cc(C(=O)O)oc2C)c(C)o1	-9.0	-0.2	/	1.4	11.0%	-6.0	-1.1	-0.1
Cc1ccc(NC(=O)CNCc2ccccc2)c(Br)c1	8.2	0.3	-2.0	1.7	5.7%	-4.4	4.5	-6.1
CSc1cccc(NC(=S)NN(C)C)c1	-4.7	0.4	3.0	1.7	-4.2%	-7.5	2.0	-8.8
CC[C@@H](C)[C@H](NC(=O)Cc1c(C)c2c(cc(C)c3c(C)c(C)oc32)oc1=O)C(=O)O	-1.7	-0.9	-1.7	4.3	5.2%	-4.2	1.5	-9.3
O=C(COC(=O)C1CC2C=CC1C2)Nc1c(Br)cc([N+](=O)[O-])cc1Br (stereo not drawn)	/	-0.1	2.6	/	1.3%	2.6	2.3	/
CCOc1ccccc1CNC(=O)Cn1ccc2cc(S(=O)(=O)N3CCCC3)ccc21	-20.0	-0.6	-0.9	1.2	/	4.9	4.5	-5.6
COc1ccc(CCNC(=O)CN2c3cccc4cccc(c34)S2(=O)=O)cc1OC	24.9	-0.2	1.0	3.7	10.4%	/	0.4	-6.6
O=S(=O)(Nc1ccc(Br)cn1)c1ccc2ccccc2c1	31.0	0.0	0.7	3.8	-1.5%	-1.5	-0.1	4.0
CCOc1ccc(/C=C(\C#N)C(=O)NC2CC2)c(OCC)c1	14.2	0.1	1.8	3.2	/	-1.8	-0.6	-7.0
Cc1noc(N)c1C(=O)Nc1ccc(F)c(Cl)c1	-3.6	-0.8	/	-3.3	-9.4%	2.4	0.6	2.7
CC(C)NC(=O)COc1ccccc1C#N	-1.6	1.6	-2.2	-0.5	-12.5%	-5.0	-0.2	-2.6
CC(C)N(Cc1ccccc1)CC(O)COc1ccc(S(=O)(=O)N2CCOCC2)cc1Cl (stereo not drawn)	-17.6	0.7	4.5	-1.7	?	-0.3	-0.8	17.9
CC12CCC(=O)N1C(C(=O)N1CCN(S(=O)(=O)c3cccc(C(F)(F)F)c3)CC1)CS2 (stereo not drawn)	-1.9	0.6	-5.6	1.2	/	0.8	/	0.0
Fc1c(F)c(F)c(N=Cc2ccc3ncccc3c2)c(F)c1F	9.7	0.6	-0.9	1.8	/	-11.1	6.0	-16.2
CC(=O)c1ccc(Nc2c3c(c(C#N)c4nc5ccccc5n24)CCC3)cc1	9.2	1.5	/	31.5*	/	9.2	-2.0	3.5
CCC(C)Nc1nc(-c2ccc3c(c2)NC(=O)CO3)cs1 (stereo not drawn)	1.7	-0.7	/	?	-0.6%	6.8	2.9	-7.1
O=C(NC1CCCC1)C(c1ccncc1)N(C(=O)Cn1nnc(-c2ccccc2F)n1)c1cccc(F)c1 (stereo not drawn)	-1.1	0.1	-12.4	2.7	/	0.0	-1.0	-9.3
CC(=O)N/C(=C\c1ccccc1)C(=O)OCC(=O)c1c(N)n(CC(C)C)c(=O)n(C)c1=O	6.6	1.3	2.7	-1.2	4.8%	1.9	0.2	2.3
O=C(Cc1ccccc1)NCC(=O)OCC(=O)c1ccccc1Cl	-1.7	-0.6	2.1	-2.0	/	-0.7	-0.9	-15.9
COC(=O)c1ccc(NC(=O)CSc2nc(N)c(NC(=O)c3ccc(Br)o3)c(=O)[nH]2)cc1	/	1.2	-1.8	/	1.2%	-2.6	-5.9	-4.8
CCc1cc(-c2n[nH]c(C)c2-c2nc(C)cs2)c(O)cc1OC	?	-0.5	4.5	-6.9	10.9%	3.2	-0.3	-8.2
CCOC(=O)c1nn(-c2cccc(C)c2)c2nnc(Cc3ccc(C)cc3)c(=O)n12	-10.2	-0.1	/	-3.7	1.7%	-3.8	-0.6	-14.3
COc1ccc(NC(=O)COC(=O)Cc2ccc(Br)cc2)cc1	-23.2	-0.5	-0.9	0.3	-11.9%	-0.4	-4.7	-6.7
C(=N\n1cnnc1)/c1cccnc1	9.6	0.4	/	-3.3	-6.8%	6.1	-0.7	-9.7
COc1ccc(CCN=c2c([N+](=O)[O-])nn(-c3cccc(C)c3)n2O)cc1OC	35.3	-0.3	-4.4	-1.0	/	23.8	0.5	47.9
CCN(CC)C(=O)C(=O)c1cccn1-c1ccc(C#N)cc1	?	0.9	-1.6	0.5	-0.5%	-1.7	-2.4	2.2
CCOc1cc(C2NC(=O)NC(C)=C2C(=O)NCc2ccccc2)c(Cl)cc1O (stereo not drawn)	-6.5	-0.9	5.8	4.4	65.2%	0.7	5.5	1.6
COC(=O)c1cc(OC)c(OCc2cc(C(=O)OC)oc2C)c(OC)c1	8.5	-0.5	/	0.6	-3.4%&-4.8%	0.4	-0.7	-0.8
c1ccc(CSc2nnc3c(n2)OC(c2ccco2)Nc2ccccc2-3)cc1 (stereo not drawn)	-1.9	1.2	/	-2.9	6.4%	-10.8	-3.6	-14.7
CCOC(=O)C1=C(C)NC2=C(C(=O)c3ccccc32)C1c1ccc(O)cc1 (stereo not drawn)	11.1	-0.5	/	4.1	-9.8%	/	-1.3	9.0
Cc1sc(N)nc1C12CC3CC(CC(C3)C1)C2	-8.1	-1.9	7.9	?	2.9%	-7.8	-3.7	7.0
O=C(OC1CCN(c2ncc(C(F)(F)F)cc2Cl)CC1)c1ccc(Cl)cc1	44.7	1.2	/	1.0	-3.4%	-7.5	6.5	-4.2
CN(C)N=Nc1ccc(S(=O)(=O)NC(Cc2ccccc2)C(=O)O)cc1 (stereo not drawn)	-4.1	0.5	-1.3	?	/	-0.2	1.2	-4.2
COC(=O)C(Cc1c[nH]c2ccccc12)NC(=O)c1cc(-c2ccc(OC)c(OC)c2)oc1C (stereo not drawn)	9.6	0.5	7.1	4.5	3.7%	-7.3	1.9	1.9
Cc1ccc(C(=O)CN2C(=O)C(C)Oc3ccccc32)cc1 (stereo not drawn)	17.1	-0.2	0.2	2.9	-1.9%	4.4	-2.6	-13.1
C#CCOCCOCCOCCNc1nc(N2CCN(C(=O)[C@H](CCCCN)n3cc(CCCC)nn3)CC2)nc(N2CCN(C(=O)[C@H](Cc3ccc(O)cc3)n3cc(CCO)nn3)CC2)n1	6.2	-1.8	/	4.2	-6.2%	-8.7	-6.3	-19.8
CN(CC(=O)Nc1cccc(F)c1)C(=O)c1cn2ccccc2n1	/	0.2	0.5	/	-13.3%	-3.4	-2.0	/
COCCNC(=O)CN1C(=O)COc2ccc(S(=O)(=O)N3CC(C)CC(C)C3)cc21 (stereo not drawn)	-1.1	-1.3	-10.8	3.8	/	-10.1	-6.5	-4.0
CC(Sc1nncs1)C(=O)NCc1ccc2c(c1)OCO2 (stereo not drawn)	1.0	0.1	/	-1.7	1.6%	-5.8	0.1	-11.4
O=C(Cc1cccs1)NCc1ccc(Cl)cc1Cl	-15.8	0.4	5.4	-1.3	/	0.7	4.8	-5.3
COc1cccc(-n2c(=O)c3c(C)c(C(=O)N(C)C)sc3n(CC(=O)NCCc3ccc(OC)c(OC)c3)c2=O)c1	-1.9	-0.4	-1.4	-2.5	7.6%	-1.7	-3.2	2.2
Cc1cc(NC(=O)c2cccc([N+](=O)[O-])c2)n(-c2ccccc2)n1	1.0	1.1	/	-1.2	3.7%	/	-0.3	-0.6
COc1ccc(OC)c(NC(=O)CSc2nnc(CNC(=O)c3ccccc3F)o2)c1	3.7	-0.3	3.4	3.5	/	-2.1	3.8	2.6
Cc1ccccc1NC(=O)C(NC1CCCCC1)C(C)C (stereo not drawn)	7.9	-0.3	-34.0	-2.8	-1.5%	0.0	1.2	4.6
CSCC[C@H](NC(=O)Nc1ccc(OC(F)(F)F)cc1)C(=O)O	-5.9	-0.3	4.1	3.6	?	1.1	2.0	2.5
CCOc1ccccc1N1CCN(C(=O)c2cc(C)oc2C)CC1	-6.5	1.3	0.7	3.0	30.7%	-8.1	-1.0	-7.3
N=C1C(c2nc3ccccc3[nH]2)=C(O)CN1NC(=O)c1c[nH]c2ccccc12	-25.9	-0.7	0.8	-5.8	1.1%	2.0	2.8	-15.3
CCCCC(C)n1[nH]c(=O)cc1N (stereo not drawn)	8.6	0.2	/	4.0	-4.4%	-0.1	3.0	7.3
O=S(=O)(c1ccccc1)N1CCC2(CC1)OCCO2	-0.9	0.4	-4.0	-2.2	2.6%	-2.1	2.4	-9.0
Cc1cccc(NC(=O)c2ccccc2SCc2ccc(F)cc2)n1	/	-1.7	-0.8	/	1.4%	3.5	0.5	/
Cc1nn(C)cc1CNC(=O)c1cccc(Cl)c1	6.3	2.1	/	1.1	0.9%	-0.6	0.5	-7.0
COc1ccc(NC(=S)N(CCCN2CCCC2)Cc2ccco2)cc1	-4.0	0.7	1.7	-15.6	67.5%	-2.5	1.8	-15.2
O=C(NCc1n[nH]c(=S)n1-c1ccc(Cl)c(Cl)c1)c1ccc(S(=O)(=O)N2CCOCC2)cc1	-1.4	-0.3	-3.7	-0.6	/	-9.6	0.9	-8.7

# (more compounds)
SMILES	Calb FLC	A1 inh	AF4-AF9 inh	RanGTP-Imp inh	Vif A3G	Beta apoptosis	LANA-H2B inh	T cruzi inh
CN(CC(=O)Nc1ccccc1N1CCOCC1)S(=O)(=O)c1ccc(Cl)cc1	1.5	0.9	/	0.4	15.1%	-1.0	9.4	2.3
CCC(C(=O)N1CCN(Cc2ccc3c(c2)OCO3)CC1)n1c(=O)[nH]c2ccccc2c1=O (stereo not drawn)	-4.9	0.2	-6.1	0.4	/	-0.2	-0.5	2.1
CCOC(=O)c1c(C)c(C(=O)NCc2cccs2)c(C)n1CC	-5.5	0.1	10.0	2.7	5.0%	5.8	-2.1	-13.0
Cc1ccccc1OC1=NS(=O)(=O)c2ccccc21	-5.3	0.7	1.4	3.6	/	-0.8	-1.6	-16.6

# Compound activity deposited in PubChem BioAssay by several laboratories.
